# High-throughput results from PubChem.
# Rango complex inh – inhibitors of Rango-importin beta complex formation | Rango CFP/YFP FRET sensor + importin beta, 45 min | 340,000 tested, 0.031% active | AID 540263 | Potency, µM (top dose mostly 92.2 µM), inactives show at the top dose inhibition of complex formation | Q14974; active = rising FRET ratio curve, often small or poorly fitted; inconclusive = mostly compound fluorescence or quenching in the first reads; inactive = flat curves in all reads;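 further: potency means the concentration at half of the fitted maximal effect; 0% = DMSO wells and 100% = buffer wells lacking importin beta; nearly all actives have a fitted effect of over 15% in size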
#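 FRET biosensor Rango (snurportin 1 IBB between N-terminal EYFP and C-terminal Cerulean), 50 nM in PBS/1 mM DTT/0.02% Tween-20/0.1% BSA, preincubated 5 min RT with compound; 0.125 microM importin beta added, 45 min RT, CFP/YFP FRET ratio read.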
# Rango dissoc inh – prevents RanGTP from dissociating the Rango-importin beta complex. O95149+P62826. Biochemical FRET Rango-importin beta, RanGTP-induced dissociation. Potency, µM (highest dose often 46.1 µM), inactives show top-dose activity change, negative = inhibition. 340,000 tested, 0.071% active. AID 540253; active means falling FRET ratio curve, often poorly fitted, with flat reads before Ran was added; inconclusive means other falling curves, or compound fluorescence or quenching; inactive means flat or rising ratio curve;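 further: potency means the concentration at half of the fitted maximal effect; % of control where 0% means no effect; nearly all actives have a fitted effect of over 45% in size; -100% = wells without RanGTP and RCC1; the record marks most hits as doubtful in a second field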
#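 Two FRET readings bracket the reaction: one 5 min after compound meets Rango–importin beta, another 45 min after RanGTP-RCC1 (0.6 uM Ran, 0.2 uM RCC1, 2 mM GTP) is added. Only the second defines inhibition.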
# GLA inh pH 4.5 – blocks human alpha-galactosidase A at pH 4.5 | purified enzyme, 4-MU-alpha-Gal fluorescence, pH 4.5 | activity change, negative = inhibition, % at 105 µM | 230,000 tested, under 10 active | AID 1467; inconclusive = small, poorly fitted or top-dose-only inhibition, or a rising curve; inactive = flat fitted curve, though single readings scatter; no compound was filed as active;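 further: 0% = full activity with enzyme and -100% = basal without enzyme; dose as in the result columns while the protocol names 77 µM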
# Target sequence (P06280 whole entry, looked up): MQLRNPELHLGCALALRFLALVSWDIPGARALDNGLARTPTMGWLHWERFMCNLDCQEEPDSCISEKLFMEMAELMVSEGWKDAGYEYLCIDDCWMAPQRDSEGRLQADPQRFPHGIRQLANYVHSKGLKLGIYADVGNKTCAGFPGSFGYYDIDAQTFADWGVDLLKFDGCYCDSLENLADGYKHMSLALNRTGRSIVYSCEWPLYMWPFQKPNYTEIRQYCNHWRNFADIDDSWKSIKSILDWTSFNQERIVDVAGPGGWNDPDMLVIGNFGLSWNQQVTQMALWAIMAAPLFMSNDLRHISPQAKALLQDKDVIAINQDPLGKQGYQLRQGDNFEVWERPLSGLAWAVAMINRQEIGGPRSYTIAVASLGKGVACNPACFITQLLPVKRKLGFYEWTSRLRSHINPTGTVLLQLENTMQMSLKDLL
# miR-21 FLuc – miR-21 reporter, rising signal. HeLa miR-21 FLuc reporter, luciferase, 48 h. Potency, µM (series often up to 38.3 µM), for inactives: at the top dose reporter change, positive = more light. 340,000 tested, under 10 active. AID 2288; active = well fitted rising curve with a large enough effect; inconclusive = small, poorly fitted or top-dose-only effect; inactive = no such curve, though single readings can be large or run the other way;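 further: % of control where 0% means no effect; miR-21 action dims this reporter so a rising signal means less miR-21 action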
#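 Using DMEM plus 10% FBS, HeLa miR-21-FLuc cells are incubated with test compounds (final up to about 40uM) for 48 hours; firefly luciferase signal is then imaged following reagent-mediated lysis.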
# Numbers without * were called inactive; ? = inconclusive; / = not tested or not shown; & = joins results of further samples. A portion of the library; the hit share may differ from the screen's.
SMILES,Rango complex inh,Rango dissoc inh,GLA inh pH 4.5,miR-21 FLuc
CCOC(=O)c1c(NC(=O)c2cc(-c3cccc(O)c3)on2)sc(C(C)=O)c1C,-5.4%,1%,-2,-7%
Cc1cc(NC2CCCC2)n2ncc(-c3ccccc3)c2n1,-2.3%,-5%,/,18%
COc1ccc(N2CCN(C(=O)Cc3ncc(C(F)(F)F)cc3Cl)CC2)cc1,0.7%,-7%,-2,-3%
Cc1sc2ncnc(N[C@@H](CCC(=O)O)C(=O)O)c2c1C,-2.5%,7%,8,-1%
CCOC(=O)N1CCN(C2CCCN(C(=O)c3ccccc3C(F)(F)F)C2)CC1 (stereo not given),-2.4%,13%,/,-2%
CCOc1ccc(CNC(=O)C2CCCN(c3nnc(C)c4c(C)n(-c5ccccc5)nc34)C2)cc1 (stereo not given),-4.4%,0%,/,-1%&18%
Cc1ccc(NC(=O)CSc2nnc(-c3ccco3)o2)c(C)c1,-0.3%,-10%,7,-3%
Cc1nnc(NC(=O)CSc2nnc(Cc3cccn3C)n2-c2ccccc2)s1,4.7%,4%,4,-2%
COc1cc(OC)cc(C(=O)N/N=C/c2ccc(OC)c(COc3ccc(F)cc3)c2)c1,-0.9%,0%,3,22%
Cc1ccc(NC(=O)CCC(=O)NNC(=S)Nc2ccc(F)cc2)c(C)c1,1.3%,-15%,/,-1%
O=C(O)c1cnn2c1C(=O)N(Cc1cccs1)CC2,-2.0%,2%,7,7%
CCCc1nc2c(=O)[nH]c3ccccc3c2o1,2.8%,-8%,4,-7%
CC(OC(=O)CCN=C1NS(=O)(=O)c2ccccc21)C(=O)Nc1ccc(F)cc1 (stereo not given),4.3%,7%,/,/
Cc1ccc(NC(=O)CNc2cccc(C)c2C)c(C)c1,?,10%,-10,-16%
Cc1ccc(C(=O)NN2C(=O)/C(=C/c3cccn3C)SC2=S)cc1,?,?,-5,-2%
Cc1ccc2c(C)c(C(=O)N3CCN(Cc4ccccn4)CC3)oc2c1C,6.4%,1%,/,-20%
NC1=NC(=O)C(CC(=O)NCc2ccccc2)S1 (stereo not given),0.4%,2%,8,-1%
C/C(=N\NC(=O)c1c[nH]c2ccccc12)c1ccc2c(c1)OCO2,7.7%,36%,2,-37%
CN1CCC(N(C)C(=O)c2cccc(S(=O)(=O)N3CCOCC3)c2)CC1,0.0%,10%,/,/
O=C(O)c1c[nH]c2c([N+](=O)[O-])cccc2c1=O,-3.4%,-10%,/,/
CCN(CC)CCNC(=O)c1cc([N+](=O)[O-])c(N(C)C)cc1OC,-2.4%,16%,5,-5%
CC(=O)c1cccc(OCc2cc(C(=O)NCCC3=CCCCC3)no2)c1,-0.4%,1%,/,-40%
O=C(CSc1nnc(CN2CCCCCC2=O)n1-c1ccccn1)NCC(F)(F)F,-5.7%,0%,6,2%
COc1ccc(NS(=O)(=O)c2ccc3c(c2)oc(=O)n3C)cc1Cl,-1.0%,-7%,/,10%&10%
CCN1CCN(CC(=O)Nc2nc3ccc(C)cc3s2)CC1,-3.9%,-6%,/,-18%

# Five entries from above in another layout:
Rango complex inh,Rango dissoc inh,GLA inh pH 4.5,miR-21 FLuc,smiles
4.7%,4%,4,-2%,Cc1nnc(NC(=O)CSc2nnc(Cc3cccn3C)n2-c2ccccc2)s1
-0.9%,0%,3,22%,COc1cc(OC)cc(C(=O)N/N=C/c2ccc(OC)c(COc3ccc(F)cc3)c2)c1
1.3%,-15%,/,-1%,Cc1ccc(NC(=O)CCC(=O)NNC(=S)Nc2ccc(F)cc2)c(C)c1
-2.0%,2%,7,7%,O=C(O)c1cnn2c1C(=O)N(Cc1cccs1)CC2
2.8%,-8%,4,-7%,CCCc1nc2c(=O)[nH]c3ccccc3c2o1

# (cont.)
SMILES,Rango complex inh,Rango dissoc inh,GLA inh pH 4.5,miR-21 FLuc
Cc1ccc(S(=O)(=O)NNC(=S)NC(=O)c2ccc([N+](=O)[O-])cc2)cc1,5.4%,-23%,-2,-6%
COc1ccc(-c2csc(Nc3ccccc3)[n+]2CC(O)c2ccc([N+](=O)[O-])cc2)cc1 (stereo not given),-1.7%,?,-17,5%
O=S1(=O)CCC(N=Cc2cc(Br)ccc2O)C1 (stereo not given),?,?,-5,-2%
COc1ccc(C(CNc2ccc(C(F)(F)F)cn2)N(C)C)cc1OC (stereo not given),0.4%,-11%,/,-7%
CC(=O)Nc1ccc(N(C(=O)Cc2c[nH]c3ccccc23)C(C(=O)NC2CCCCC2)c2ccco2)cc1 (stereo not given),-0.3%,2%,?,-2%
Cc1cc(-c2nnc3sc(C4CCCCC4)nn23)n[nH]1,0.8%,-5%,-6,-9%
O=C(/C=C/c1ccco1)NCC(=O)N/N=C/c1ccc(Cl)cc1,0.6%,-6%,-4,-3%
CNC(=S)NNC(=O)c1sc(-c2cc(C)on2)nc1C,-2.8%,-4%,-3,-7%
CCCn1nc(NC(=O)c2ccccn2)c2cc3cc(C)ccc3nc21,?,?,24,-5%
COCCSc1ccccc1C(=O)Nc1cc(C)on1,0.1%,1%,4,-2%
N#CCCN(C(=O)COC(=O)CNC(=O)c1ccc(-c2ccccc2)cc1)c1ccc(F)cc1,1.0%,12%,/,/
CN(C)c1ccc(NC(=O)CCn2c(=S)oc3ccccc32)cc1,2.4%,18%,-12,-17%
N#C/C(=C/C1=C(N2CCOCC2)C(=C/c2ccc(Cl)cc2)/CC1)C(=O)Nc1ccccc1F,-5.8%,-7%,/,/
CN1CCN(NC(=S)Nc2ccc(Oc3ccccc3)cc2)CC1,0.1%,8%,7,3%
C/C(=N\NC(=O)c1c(Cl)c(C)nn1C)c1ccc(NC(=O)C2CCC2)cc1,-4.0%,-3%,/,16%
CCOC(=O)C1=C(C)c2ccccc2OC1(C(=O)OCC)C(C)C (stereo not given),2.9%,1%,?,/
CC(=O)O[C@H]1CC[C@H]2[C@@H]3CCc4cc(O)ccc4[C@H]3CC[C@]12C,-3.1%,19%,/,4%
CC(=O)Nc1ccccc1NC(=O)C/C(C)=N/NC(=O)c1ccccn1,-2.8%,-3%,-3,-59%
CCCC(=O)Nc1c(C(=O)OCC)oc2ccccc12,1.0%,19%,-9,1%
CCc1c(C(=O)NNC(=S)Nc2ccc(S(=O)(=O)Nc3ncccn3)cc2)csc1C,-0.4%,-13%,/,-6%
CC(C(=O)NCCCc1ccccc1)n1cccc1C(=O)c1ccccc1 (stereo not given),-2.3%,8%,/,0%
COc1cc2c(cc1OC)CN(S(=O)(=O)c1cccs1)CC2,-5.1%,14%,-13,-13%
C=CCC1(CC=C)CCCN1C(=O)c1cc(COc2ccc(F)c(F)c2)on1,3.9%,12%,/,6%
O=S(=O)(Nc1ccc(Cc2ccncc2)cc1)c1ccc(Br)cc1,2.8%,18%,-4,8%
Cc1cc(S(=O)(=O)N2CCN(CC(=O)NC(C)(C#N)C3CC3)CC2)ccc1Br (stereo not given),-2.5%,-13%,/,/

# (more compounds)
SMILES,Rango complex inh,Rango dissoc inh,GLA inh pH 4.5,miR-21 FLuc
O=c1[nH][nH]c(C(F)(F)F)c1C=Nc1ccccc1Cl,-1.2%,11%,-14,1%
CCOC(=O)C1(Cc2cccc(OC)c2)CCN(Cc2cccc(OC)c2OC)CC1,0.1%,-10%,-2,1%
Cc1cc2cc(C(c3nnnn3Cc3ccco3)N3CCc4ccccc4C3)c(=O)[nH]c2cc1C (stereo not given),?,-16%,-6,2%
N/N=C(\c1ccccc1)C12CN3CN(CN(C3)C1)C2,0.9%,2%,9,-1%
Cc1ccc(-n2nc(-c3ccco3)cc2C(=O)O)cc1,?,-4%,3,-6%
FC(F)(F)c1nc2ccccc2c2nc3ccccc3n12,0.2%,-14%,-1,-10%
O=C(COc1cc2oc(=O)c3c(c2cc1Cl)CCC3)Nc1cccnc1,-2.8%,7%,/,-14%
O=C(C[C@@H]1C/C=C/CC[C@@H](Cc2ccc(F)cc2)C(=O)OC[C@H](Cc2ccccc2)NC1=O)N[C@H](CO)Cc1ccccc1,-2.4%,3%,/,/
Cc1[nH]c2ccccc2c1/C=N/NC(=O)Cc1cccs1,-1.7%,-10%,0,-14%
Cc1cc(=O)n2c3ccccc3n(CC(O)CN3CCOCC3)c2c1C#N (stereo not given),-0.1%,10%,-22,-1%
CC1Cc2ccccc2N1C(=O)CSc1nn2c(=O)c(C(C)(C)C)nnc2s1 (stereo not given),-1.7%,6%,-5,12%
Cc1cccc(NC(=O)COc2coc(CN3CCc4ccccc4C3)cc2=O)c1,0.2%,-1%,/,/
CCOc1ccc(CCNC(=O)C2CCN(S(=O)(=O)CC)CC2)cc1OCC,-1.0%,-3%,-4,1%
Oc1c(C(c2ccc(F)cc2)N2CCc3ccccc3C2)sc2ncnn12 (stereo not given),0.2%,-3%,0,-1%
O=S(=O)(c1cccs1)N1CCC(CO)(Cc2ccc(Cl)cc2)CC1,0.2%,-1%,-1,9%
O=C(COc1ccc(S(=O)(=O)N2CCCC2)cc1)N1CCCCC1,-1.8%,8%,/,-2%
Cc1ccc(NC(=O)C(C)OC(=O)c2nc(Cl)ccc2Cl)cc1S(=O)(=O)N1CCOCC1 (stereo not given),?,?,/,/
CC(C)NC(=O)Cn1c(SCC(=O)c2ccc(F)cc2)nc2ccccc21,4.5%,2%,-1,-5%
CC(=O)Nc1ccccc1/C=C/c1ccc2c(C)ccc(O)c2n1,1.3%,19%,2,-4%
O=C(O)c1ccc2cccnc2c1O,-2.9%,2%,5,0%
COc1cc2c(cc1OC)C(C)N(CC(=O)Nc1ccc(S(=O)(=O)N3CCCC3)cc1)CC2 (stereo not given),-2.5%,1%,/,16%
O=C1/C(=C/c2ccncc2)SC(=S)N1Nc1ccccc1,?,-4%,-6,0%
O=C(O)c1cc(S(=O)(=O)N2CCCCC2)sc1Cl,-0.1%,-14%,5,-2%
CC(OC(=O)CN1C(=O)c2ccccc2C1=O)C(=O)NC1CCCCC1 (stereo not given),-0.1%,-6%,/,9%
Cc1cc(C)c(N(C(=O)Cn2nnc3ccccc32)C(C(=O)NC(C)(C)C)c2ccsc2)c(C)c1 (stereo not given),6.5%,20%,-4,11%

# (continued)
SMILES,Rango complex inh,Rango dissoc inh,GLA inh pH 4.5,miR-21 FLuc
COc1ccc(NC(=O)CCc2nnc3ccc(N4CCC(C)CC4)nn23)cc1,0.1%,9%,/,-2%
c1ccc(-n2cnnc2SCc2cn3cccnc3n2)cc1,-1.1%,-11%,3,0%
CCOC(=O)C1CCN(C(=O)CNC(=O)c2nn(-c3ccc(OC)c(OC)c3)c(=O)c3ccccc23)CC1,1.6%,-5%,/,-7%
CCc1cc(=O)oc2cc(OCC(=O)N(CC)CC)c(Cl)cc12,-3.6%,20%,-11,-13%
COc1ccc(OC)c(NC(=O)C(=O)N/N=C(\C)CC(=O)Nc2ccc(Cl)cn2)c1,-2.7%,-17%,/,-4%
C#CCNC(=O)C1=C[C@@H](c2ccccc2)C[C@@H](OCc2ccc(CO)cc2)O1,0.1%,-17%,0,-6%
CC(C)CC1(C2CCCC2)NC(=O)NC1=O (stereo not given),2.8%,8%,/,/
Cc1c(C)n2c(SCC(=O)NC3CCCC3)nnc2[nH]c1=O,-2.1%,-17%,/,/
COc1ccc(-c2csc(NC(=S)NC(=O)c3cc4ccccc4o3)n2)cc1Br,0.0%,9%,/,-14%
CC(c1ccccc1)N1C(=O)c2ccc(C(=O)NCc3ccco3)cc2C1=O (stereo not given),-3.4%,-5%,6,-7%
Cc1cccc(C)c1-n1nnnc1C(C)(C)N1CCN(N=O)CC1,3.2%,-11%,2,-7%
O=C(c1ccco1)N1C(=O)c2cccc3cccc1c23,-0.1%,-3%,-10,-3%
COc1cc(OC)cc(C(=O)NNC(=O)c2ccc(S(=O)(=O)N(C)c3ccccc3OC)cc2)c1,-1.0%,5%,-3,?
COc1ccc(OC)c(/C=N/NC2=NS(=O)(=O)c3ccccc32)c1,-1.6%,6%,/,1%

# Compound profiles (already shown).
# CN1CCN(NC(=S)Nc2ccc(Oc3ccccc3)cc2)CC1 reads Rango complex inh: 0.1%; Rango dissoc inh: 8%; GLA inh pH 4.5: 7; miR-21 FLuc: 3%
# O=C(O)c1c[nH]c2c([N+](=O)[O-])cccc2c1=O reads Rango complex inh: -3.4%; Rango dissoc inh: -10%; GLA inh pH 4.5: /; miR-21 FLuc: /
